Source: PubChem (National Center for Advancing Translational Sciences (NCATS))
miR-21 reporter = miR-21 reporter, rising signal | HeLa miR-21 FLuc reporter, luciferase, 48 h | Potency, µM (top dose mostly 38.3 µM), for inactives: top-dose reporter change, positive = more light | 340,000 tested, under 10 active; active = well fitted rising curve with a large enough effect; inconclusive = small, poorly fitted or top-dose-only effect; inactive = no such curve, though single readings can be large or run the other way;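 further: % of control where 0% means no effect; miR-21 action dims this reporter so a rising signal means less miR-21 action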
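HeLa miR-21-FLuc reporter line, endogenous miR-21; 2000 cells/well in DMEM/10% FBS; compound titration up to ~40uM final, 48 h, 37 degree Celsius; luciferase detection reagent, 15 min lysis, CCD luminescence.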
Rango release inh = inhibition of RanGTP-driven Rango-importin beta dissociation; O95149+P62826; Biochemical FRET Rango-importin beta, RanGTP-induced dissociation; Potency, µM (series often up to 46.1 µM), inactives show at the highest dose activity change, negative = inhibition; hit rate 0.071% among 340,000; AID 540253; active means falling FRET ratio curve, often poorly fitted, with flat reads before Ran was added; inconclusive means other falling curves, or compound fluorescence or quenching; inactive means flat or rising ratio curve;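 further: potency means the concentration at half of the fitted maximal effect; % of control where 0% means no effect; nearly all actives have a fitted effect of over 45% in size; -100% = wells without RanGTP and RCC1; the record marks most hits as doubtful in a second field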
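Recombinant Rango FRET biosensor (EYFP–snurportin 1 IBB–cerulean CFP10) at 0.1 uM premixed with 0.25 uM importin beta in PBS, 1 mM DTT, 0.02% Tween-20, 0.1% BSA. Compound added 5 min; RanGTP-RCC1 (0.6 uM Ran, 2 mM GTP, 0.2 uM RCC1) then triggers release, read at 45 min.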
Rango complex inh = prevents formation of the Rango-importin beta complex | Q14974 | Rango CFP/YFP FRET sensor + importin beta, 45 min | Potency, µM (top dose mostly 92.2 µM), inactives show top-dose inhibition of complex formation | hit rate 0.031% among 340,000 | AID 540263; active = rising FRET ratio curve, often small or poorly fitted; inconclusive = mostly compound fluorescence or quenching in the first reads; inactive = flat curves in all reads;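 further: potency means the concentration at half of the fitted maximal effect; 0% = DMSO wells and 100% = buffer wells lacking importin beta; nearly all actives have a fitted effect of over 15% in size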
Target sequence (Q14974 whole entry, looked up): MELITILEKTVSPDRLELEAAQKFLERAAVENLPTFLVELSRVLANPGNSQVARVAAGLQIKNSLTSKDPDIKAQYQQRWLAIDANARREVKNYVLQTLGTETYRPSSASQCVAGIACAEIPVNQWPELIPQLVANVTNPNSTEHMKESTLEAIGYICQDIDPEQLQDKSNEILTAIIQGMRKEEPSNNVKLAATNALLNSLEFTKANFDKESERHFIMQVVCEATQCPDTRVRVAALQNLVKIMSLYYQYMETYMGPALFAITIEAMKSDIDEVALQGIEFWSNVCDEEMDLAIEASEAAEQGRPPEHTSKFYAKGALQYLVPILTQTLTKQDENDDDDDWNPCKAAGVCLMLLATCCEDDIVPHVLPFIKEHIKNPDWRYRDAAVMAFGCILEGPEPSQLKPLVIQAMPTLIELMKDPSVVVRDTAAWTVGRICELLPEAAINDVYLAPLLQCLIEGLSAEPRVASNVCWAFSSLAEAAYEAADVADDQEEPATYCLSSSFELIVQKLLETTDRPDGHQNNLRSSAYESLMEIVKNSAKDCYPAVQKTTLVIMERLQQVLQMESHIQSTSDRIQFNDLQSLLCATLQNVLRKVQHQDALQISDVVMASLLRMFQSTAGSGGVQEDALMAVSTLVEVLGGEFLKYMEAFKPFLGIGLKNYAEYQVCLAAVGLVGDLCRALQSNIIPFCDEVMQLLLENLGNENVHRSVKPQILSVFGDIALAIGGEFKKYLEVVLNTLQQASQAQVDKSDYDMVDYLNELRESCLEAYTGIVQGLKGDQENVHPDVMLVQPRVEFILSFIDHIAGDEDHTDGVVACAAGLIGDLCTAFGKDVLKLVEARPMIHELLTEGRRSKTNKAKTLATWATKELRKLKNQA
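FRET biosensor Rango (snurportin 1 IBB between N-terminal EYFP and C-terminal Cerulean), 50 nM in PBS/1 mM DTT/0.02% Tween-20/0.1% BSA, preincubated 5 min RT with compound; 0.125 microM importin beta added, 45 min RT, CFP/YFP FRET ratio read.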
GLA inh pH 4.5 = inhibitors of human alpha-galactosidase A at pH 4.5 | P06280 | purified enzyme, 4-MU-alpha-Gal fluorescence, pH 4.5 | activity change, negative = inhibition, % at 105 µM | 230,000 tested, under 10 active | AID 1467; inconclusive = small, poorly fitted or top-dose-only inhibition, or a rising curve; inactive = flat fitted curve, though single readings scatter; no compound was filed as active;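 further: 0% = full activity with enzyme and -100% = basal without enzyme; dose as in the result columns while the protocol names 77 µM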
Active calls of the source: *; ? = inconclusive; . = not tested or not shown; [ ] = remark or other dose. A portion of the library (hit frequency here may not be typical).

SMILES | miR-21 reporter | Rango release inh | Rango complex inh | GLA inh pH 4.5
Cc1cccc(C(=O)Nc2cccc(C(=O)N/N=C/c3ccncc3)c2)c1 | -3% | -19% | 0.9% | -19
Cn1c(CCN2CCN(c3ccccn3)CC2)nc2cc(NS(=O)(=O)c3ccccc3)ccc21 | 20% | -1% | -0.6% | .
CCOC(=O)c1c([N+](=O)[O-])c(C)[nH]c(=O)c1C#N | -1% | 18% | 2.9% | -18
CCCNC(=O)COCc1cc(-c2ccc3c(c2)OCO3)on1 | -42% | 6% | 4.6% | .
O=C(N[C@@H](Cc1ccccc1)C(=O)OCc1ccccc1)c1nc[nH]c1C(=O)NCc1ccccc1 | 3% | -6% | 1.0% | -5
Cc1ccc(CNC(=O)C2CCN(S(=O)(=O)N3CC(C)CC(C)C3)CC2)cc1 (stereo not drawn) | 0% | -2% | 3.6% | .
O=C(NC1CCCCCC1)C1CCN(C(=O)Cc2ccccc2)CC1 | -4% | -2% | -3.3% | -3
c1ccc(C2=Nc3ccccc3OC2)cc1 | -14% | -6% | 3.2% | -4
Cc1ccc(S(=O)(=O)Nc2cc(=O)[nH]c(SCc3ccc(Cl)cc3)n2)cc1 | -12% | 22% | -0.9% | 0
COc1ccc(Cl)cc1S(=O)(=O)N(C)CC(=O)NCc1ccccn1 | -4% | -2% | -0.2% | .
CC(C)Oc1c(Cl)cc(CNC(C)(C)CO)cc1Cl | -2% | -2% | -1.2% | -4
CCOC(=O)c1nn(-c2ccc(F)cc2)c(=O)c(C#N)c1C | 0% | 2% | 1.5% | .
COc1cccc2[nH]c3c(=O)[nH]cnc3c12 | 0% | -8% | ? | .
COc1cccc(CC2(CO)CCN(S(=O)(=O)N(C)C)CC2)c1 | 0% | -4% | -2.4% | 1
Cc1ccc(S(=O)(=O)Nc2ccc3nc(C)sc3c2)cc1 | 1% | -15% | 0.6% | -11
Cn1ccc(NC(=O)Nc2cccc([N+](=O)[O-])c2)n1 | -32% | 24% | -2.0% | 1
CC(C)Oc1ccc(CC(=O)NNC(=S)Nc2ccc(Br)cc2)cc1 | -6% | 10% | -0.8% | -12
Cc1ccccc1NC(=O)c1cc2c(C)nc3ccccc3c2o1 | -8% | 11% | -3.6% | 4
Cc1ccc(NS(=O)(=O)c2ccc(OCC(=O)NCc3cccnc3)cc2)cc1 | -11% | -13% | -2.5% | -7
Cc1nn(C)c(C)c1S(=O)(=O)N1CCCC(C(=O)NCC2COc3ccccc3O2)C1 (stereo not drawn) | 0% | -15% | 1.6% | 1
COc1ccc(-c2csc(N(CC3CCCO3)C(=O)c3cccs3)n2)cc1 (stereo not drawn) | -1% | 3% | -0.3% | -2
COc1ccc(NC(=O)c2cc(C)n(Cc3cccs3)c2C)cc1 | -28% | -5% | 3.5% | 5
Cc1ccc(CNC(=O)c2ccc3nc4[nH]c5ccccc5c4nc3c2)cc1 | -24% | . | . | -4
CC1(c2ccccc2Cl)NC(=O)N(CC(=O)Nc2cccnc2Cl)C1=O (stereo not drawn) | . | -6% | -1.1% | .
CC(=O)Nc1ccc(OCC(=O)N(CC(C)C)C2CCS(=O)(=O)C2)cc1 (stereo not drawn) | 0% | -9% | -0.2% | 3
SMILES | miR-21 reporter | Rango release inh | Rango complex inh | GLA inh pH 4.5
CCc1cccc(NC(=O)c2ccc(NS(=O)(=O)c3c(C)noc3C)cc2)c1 | -23% | 0% | 0.7% | -3
CCN(C(=O)c1cc2c(=O)[nH]c3ccc(C)cc3c2s1)c1cccc(C)c1 | 3% | 0% | 0.2% | 5
C=CCNC(=O)CCCCCNS(=O)(=O)c1ccc(OC)cc1 | 0% | 1% | -0.6% | 5
CCOc1ccc(Oc2ccccc2NS(=O)(=O)c2ccc(CCC(=O)O)cc2)cc1 | . | -12% | -3.4% | .
CCCCOc1cccc(C2/C(=C(/O)c3ccc4c(c3)CC(C)O4)C(=O)C(=O)N2CCN2CCOCC2)c1 (stereo not drawn) | 3% | -13% | 1.2% | .
O=C(NC1CCCCC1)c1ccc2snnc2c1 | -6% | 0% | 3.3% | .
O=C(NCc1cccs1)C1CCN(S(=O)(=O)c2cccc([N+](=O)[O-])c2)CC1 | -3% | -8% | 4.0% | .
C/C(=N\Nc1nc(C)c(C)s1)c1ccc([N+](=O)[O-])cc1 | -14% | -7% | -1.6% | -7
S=C(NCc1ccncc1)Nc1cccc(Cl)c1 | 12% | 30% | -0.4% | -3
Cc1ccsc1C(=O)OCC(=O)N1C(C)CCCC1C (stereo not drawn) | . | -2% | 5.0% | .
COc1ccccc1/C=C/C(=O)OCC(=O)Nc1ccc2c(c1)OCO2 | . | 2% | -1.1% | .
COCCCN(C(=O)c1ccc2ccccc2n1)c1c(N)n(Cc2ccccc2)c(=O)[nH]c1=O | . | -9% | -3.1% | .
COCCCn1c2nc3ccccc3nc2c2c(=O)n(Cc3cccs3)cnc21 | 1% | . | . | 6
CC(C)(C)OC(=O)N1Cc2ccccc2C[C@H]1C(=O)NCC(=O)NC1CCCC1 | 0% | 18% | -0.5% | .
Cc1cc(C)c2c(=O)cc(C(F)(F)F)oc2n1 | -2% | 30% | -0.6% | 2
O=C(NC1CC2CCCC(C1)N2C(=O)Nc1cccc(F)c1)C1CC1 (stereo not drawn) | 1% | -15% | 0.1% | .
CCC1(C)Cc2c(C#N)c(N)n(N)c(=S)c2CO1 (stereo not drawn) | -19% | 2% | -3.2% | 3
COCCNC(=O)CCC1CCN(Cc2ccc(-c3ccccc3)cc2)CC1 | 2% | 24% | -3.0% | .
COc1ccc2c(c1)c(C(=O)OCCN(C)C)c(C)n2C | -1% | 2% | 4.3% | -1
COc1ccc(CN=Cc2c(O)[nH]c3ccccc23)cc1 | -34% | -1% | -1.7% | -17
CCn1cc(S(=O)(=O)Nc2ccc(C)c(Cl)c2)cn1 | -19% | -23% | 1.8% | .
N#CCSc1nnc2sc3ccccc3n12 | -31% | -20% | 4.1% | 5
O=C(Oc1cccc(Nc2ncnc3ccccc23)c1)c1cccnc1 | -25% | -12% | ? | -18
COc1ccccc1CCN=C(N)NS(=O)(=O)c1cc(F)ccc1F | 0% | -8% | 1.7% | .
COc1ccc(CN2CCN(CCc3ccccc3)C(CCO)C2)c(O)c1 (stereo not drawn) | 4% | 1% | -2.2% | 4
SMILES | miR-21 reporter | Rango release inh | Rango complex inh | GLA inh pH 4.5
COc1ccc(NC(=O)NNC(=O)CCc2ccc(O)c(O)c2)cc1OC | 2% | 27% | 7.1% | .
COc1ccc(N2CCN(c3ccc(C(=O)O)cc3[N+](=O)[O-])CC2)cc1 | -27% | 14% | -0.1% | .
Cc1cc(CNC(=O)C2CCC(=O)N(Cc3ccccc3F)C2)nn1C (stereo not drawn) | 3% | 4% | -3.1% | .
CN(C)N1C(N)=C(C#N)C(c2cccs2)C2=C1CCCC2=O (stereo not drawn) | -1% | 16% | 0.8% | 5
O=C(NCC1CCCO1)c1ccc([N+](=O)[O-])s1 (stereo not drawn) | 8% | 1% | 1.6% | .
CC(=O)Nc1ccc(Sc2ccccc2C(=O)O)cn1 | -2% | -13% | -5.0% | .
O=C(COC(=O)CC(c1ccccc1)c1ccccc1)Nc1ccc(F)c(F)c1 | 1% | . | . | ?
NC(=O)C1CC(=O)N(c2ccc(OCC(=O)N3CCCC3)cc2)C1 (stereo not drawn) | . | 2% | ? | .
CCN(CC(=O)Nc1ccccc1C(F)(F)F)C(=O)C1=COCCO1 | . | -5% | 2.1% | .
CCCc1c(C)[nH]c2ccccc2c1=O | 1% | 2% | 1.0% | -5
Cn1c(SCC(=O)NCc2ccccc2)ncc(C(=O)Nc2ccccc2)c1=O | . | 8% | 1.9% | .
Cc1cc(C)n(C(=O)CN2C(=O)CCC2=O)n1 | 1% | -2% | -0.3% | 1
COc1ccc(CN(C(=O)/C=C/C(=O)c2ccc(OC)cc2O)C(C(=O)NC2CCCCC2)c2ccncc2)cc1 (stereo not drawn) | -3% | -4% | 0.2% | -8
COc1ccccc1N(CC(=O)N/N=C/c1ccc(OCC(=O)NCc2ccco2)cc1)S(=O)(=O)c1ccc(C)cc1 | 12% | -23% | -4.0% | -6
CC(C)c1nc2cc(C(=O)N3CCN(c4cnccn4)CC3)ccc2o1 | -3% | 11% | 6.0% | .
CC(C)c1ccc(C2c3[nH]c4ccccc4c3C[C@H]3C(=O)N(c4ccccc4C(=O)N4CCC[C@@H]4C(=O)O)C(=O)N23)cc1 (stereo partly drawn) | -8% | -24% | ? | .
Cc1ccc(NC(=O)N2CCCN(C(=O)OC(C)(C)C)CC2)cc1Cl | -7% | 11% | 0.7% | .
CCOC(=O)N1CCN(S(=O)(=O)c2ccc(OCC(=O)OC)c(Cl)c2)CC1 | 1% | 3% | 1.9% | -3
COC(=O)Cc1c(CSc2ccccc2)oc2ccc(O)c(CN(C)C)c12 | -4% | 0% | 0.2% | .
O=C(NCc1nc2ccccc2[nH]1)C1=C[C@H](c2ccc3c(c2)OCO3)C[C@H](OCc2ccc(CO)cc2)O1 | 1% | ? | 0.0% | 7
COc1ccc(CCNc2ccc(S(=O)(=O)N3CCCC3)cc2[N+](=O)[O-])cc1 | -1% | 15% | 6.6% | -2
COc1cc(OC)c(NC(=O)c2csc(C)c2)cc1Cl | -12% | -6% | -2.4% | .
CCOc1ccc(-n2ccnc(SCC(=O)Nc3ccc(OC)cc3OC)c2=O)cc1 | . | 3% | -4.8% | .
C=CCNC(=S)N/N=C/c1ccc(-c2ccc(OC)cc2)o1 | 12% | -12% | ? | -18
O=C(Cc1cccs1)N/N=C\c1ccc(O)cc1 | -28% | -1% | 0.0% | 4[21.1 µM]
SMILES | miR-21 reporter | Rango release inh | Rango complex inh | GLA inh pH 4.5
O=C(OCC(=O)N1c2ccccc2Sc2ccccc21)C1CC(=O)N(Cc2ccco2)C1 (stereo not drawn) | -5% | -4% | 2.1% | 3
CC(C)COC(=O)NCCOC(=O)Nc1cccc(Cl)c1 | -3% | -4% | 2.4% | 1
COc1cccc2c1C(=O)C[C@]1(CCCC[C@@H]1C)O2 | . | 1% | -0.1% | .
CCOC(=O)c1c(CSc2ccccc2)oc2ccc(O)cc12 | -4% | 20% | -14% | -18
CCN(CC)C(=O)C1CC(c2ccc(OC)cc2)=NO1 (stereo not drawn) | -38% | -6% | -1.1% | -2
Cc1cc(=O)n2[nH]c(NCc3ccccc3F)nc2n1 | 3% | 19% | -1.6% | -4
COc1ccc(C=O)cc1CN1CCCN(Cc2ccc(Cl)cc2)S1(=O)=O | 1% | 0% | -0.6% | .
COCCCNC(=O)CC(NS(=O)(=O)c1ccc(C)cc1)c1ccc(OC)cc1 (stereo not drawn) | 0% | 13% | 0.8% | 4
N#CC1=C(Nc2ccc(Br)cc2)CCC1 | -8% | -9% | -3.5% | -3
O=C(CSc1nnc(-c2cccnc2)o1)Nc1ccccc1Br | -33% | 12% | 1.9% | .
COc1ccc(-c2nc3nc(C)cc(C)n3n2)cc1 | -36% | -4% | -0.6% | -1
COc1ccccc1NC(=O)CCc1nc(-c2ccccc2F)no1 | -3% | -19% | -1.8% | -7
COc1ccc(-c2csc3nc(C)nc(N4CCN(c5ccc(C(C)=O)cc5)CC4)c23)cc1OC | 16% | 1% | 2.2% | -6
Cc1nnc(SCc2ccc(F)cc2Cl)s1 | -58% | 5% | 0.8% | 7
COc1cc(OC)cc(C(=O)Nn2c(C)nc3ccccc3c2=O)c1 | 11% | 3% | 6.8% | -6

Arranged by the number under Rango complex inh (ascending): four of the compounds above.
SMILES | miR-21 reporter | Rango release inh | Rango complex inh | GLA inh pH 4.5
COc1ccccc1/C=C/C(=O)OCC(=O)Nc1ccc2c(c1)OCO2 | . | 2% | -1.1% | .
COc1ccc(C=O)cc1CN1CCCN(Cc2ccc(Cl)cc2)S1(=O)=O | 1% | 0% | -0.6% | .
S=C(NCc1ccncc1)Nc1cccc(Cl)c1 | 12% | 30% | -0.4% | -3
O=C(NC1CC2CCCC(C1)N2C(=O)Nc1cccc(F)c1)C1CC1 (stereo not drawn) | 1% | -15% | 0.1% | .
